# Menin MLL FP FL = qHTS Assay for Inhibitors Targeting the Menin-MLL Interaction in MLL Related Leukemias: Competition With Fluorescein Labeled MLL-derived Peptide; Fluorescence polarization, fluorescein-MLL peptide displacement from menin; FP activity change, % at 61.4 µM; 290,000 tested, under 10 active; AID 1766, 2009; inconclusive = falling polarisation curve, or a change in total fluorescence; inactive = total fluorescence flat and polarisation flat or rising; no compound was filed as active; the % refers to the polarisation; negative = inhibition;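 note: % of control where 0% means no effect; inhibitors lower the polarisation; unlabelled MLL peptide was the positive control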
# gsp ag = qHTS for Agonist of gsp, the Etiologic Mutation Responsible for Fibrous Dysplasia/McCune-Albright Syndrome: qHTS | hit rate 0.13% among 340,000 | Potency, µM (highest dose often 76.9 µM), inactives show at the top dose activation (cAMP increase), hits mostly activators | gsp mutant cells, cAMP HTRF, 30 min; control for the full effect not named in the record; active = well fitted activation curve with a large enough effect; inconclusive = small, poorly fitted or top-dose-only effect, or another doubt; inactive = no such curve, though single readings can be large or run the other way; cell line not stated here;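 note: phosphodiesterase inhibitor Ro 20-1724 added with compounds to block cAMP breakdown; potency is the fitted concentration of half-maximal effect; nearly all actives have a fitted effect of over 60% in size; about a fifth of the inactives were tested at one dose only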
#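 Cells in DMEM/10% FBS with G418 were pretreated with compounds in DMSO plus […] (300 uM stock) for 30 min at 37C. cAMP was measured by HTRF (cAMP-d2 plus anti-cAMP antibody-K) after 30 min at room temperature.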
# gsp antag = qHTS for Antagonists of gsp, the Etiologic Mutation Responsible for Fibrous Dysplasia/McCune-Albright Syndrome: qHTS | hit rate 0.4% among 340,000 | AID 624288, 2012 | Potency, µM (series often up to 76.9 µM), for inactives: at the highest dose activity change, negative = inhibition, most hits filed as inhibitors | gsp-mutant cells, cAMP HTRF, 30 min; control for the full effect not named in the record; active = falling curve of any shape with a large fitted effect; inconclusive = falling curve, mostly with a smaller effect; inactive = flat or rising curve; cell line not stated here;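 note: intracellular cAMP measured with PDE inhibitor Ro 20-1724 present during compound exposure; potency is the fitted concentration of half-maximal effect; % is set by controls: 0 for no effect and ±100 for the full control effect; nearly all actives have a fitted effect of over 65% in size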
#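 HTRF cAMP read-out (cAMP-d2 plus anti-cAMP antibody-K in lysis buffer, 30 min RT). Before lysis, cells are exposed to compounds with […] for 30 min at 37C in DPBS containing Ca/Mg, BSA and Tween 20.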
# PINK1 expr mod = A Quantitative High throughput Screen to Identify Chemical Modulators of PINK1 Expression | PINK1 immunofluorescence, high-content cytometry, 24 h | Potency, µM (titrated, usually from 76.6 µM), for inactives: top-dose activation (PINK1 increase), hits mostly activators | hit rate 0.2% among 410,000 | AID 624263, 2012; active = well fitted activation curve with a large enough effect; inconclusive = small, poorly fitted or top-dose-only effect; inactive = flat fitted curve, though single readings scatter; cell line not stated here;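 note: potency is the fitted concentration of half-maximal effect; % of control where 0% means no effect; nearly all actives have a fitted effect of over 65% in size; a mitochondrial uncoupler was the plate control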
#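 Stable cell line treated 24 h with compounds at 5 concentrations (CCCP controls), then fixed and immunostained for PINK1 plus nuclear and cell stains; PINK1 immunofluorescence quantified by laser-scanning microplate cytometry.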
# Sfp PPTase inh = qHTS Assay for Inhibitors of Bacillus subtilis Sfp phosphopantetheinyl transferase (PPTase); 4'-phosphopantetheinyl transferase ffp (Bacillus subtilis), Q9F4F7; Biochemical Sfp PPTase activity, qHTS; Potency, µM, inactives show max response, negative = inhibition, most hits filed as inhibitors; hit rate 3.5% among 310,000; active = well fitted inhibition curve with a large enough effect; inconclusive = small, poorly fitted or top-dose-only effect, or another doubt; inactive = no such curve, though single readings can be large or run the other way;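 note: the enzyme is Sfp with the accession as filed and its product quenches rhodamine fluorescence; potency is the fitted concentration of half-maximal effect; 0% = enzyme reaction without inhibitor and -100% = no enzyme wells; top concentration of the series not given in the record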
#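 Reaction rates are the 30-min fluorescence difference (ex 525, em 598 nm) in wells containing 15 nM Sfp, 5 uM rhodamine-CoA and 12.5 uM BHQ-2-YbbR at pH 7.6 with 10 mM MgCl2.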
# ClpP mod = qHTS Assay for Activators of ClpP. purified B. subtilis ClpP, FRET peptide cleavage, 20 min. ATP-dependent Clp protease proteolytic subunit (Bacillus subtilis (strain 168)), P80244. Potency, µM (series often up to 57.5 µM), for the others: at the top dose activity change, negative = active. hit rate 1.9% among 340,000; active = well fitted falling curve with a large enough effect; inconclusive = small, poorly fitted or top-dose-only effect; inactive = no such curve, though single readings can be large or run the other way; note: potency is the fitted concentration of half-maximal effect; the source files actives as falling curves though it sought activators and does not explain the sign; nearly all actives have a fitted effect of over 65% in size; many hits overshoot -100%
# Target sequence (P80244 whole entry, looked up): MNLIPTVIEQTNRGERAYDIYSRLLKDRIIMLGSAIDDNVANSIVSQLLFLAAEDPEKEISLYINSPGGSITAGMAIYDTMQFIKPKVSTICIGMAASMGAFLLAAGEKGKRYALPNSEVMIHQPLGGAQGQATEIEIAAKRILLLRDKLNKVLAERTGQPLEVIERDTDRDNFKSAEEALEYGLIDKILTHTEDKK
#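 FRET quenching reversal measured ClpP activation: 10 microg/mL B. subtilis ClpP at pH 8 with the FRET-FV decapeptide, read at 430 nm after 320 nm excitation. The 20-min minus 0-min signal was scaled between DMSO/no-enzyme wells and ADEP (5.8 microM final).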
# D2 ag = Beta-Arrestin HTS for Positive Allosteric Modulators of the Human D2 Dopamine Receptor: Agonists; activation, % (no concentration beside the values); DiscoveRx PathHunter D2 beta-arrestin, luminescence, 90 min; 100% = 57 uM dopamine signal; hit rate 0.084% among 360,000; D(2) dopamine receptor (Homo sapiens), P14416; in the data active = activation above about 40%; inconclusive = about 15% to 40%; inactive = below about 15%; note: compound concentration not given in the record; the text of the record calls up to 30% inactive
# Target sequence (P14416 whole entry, looked up): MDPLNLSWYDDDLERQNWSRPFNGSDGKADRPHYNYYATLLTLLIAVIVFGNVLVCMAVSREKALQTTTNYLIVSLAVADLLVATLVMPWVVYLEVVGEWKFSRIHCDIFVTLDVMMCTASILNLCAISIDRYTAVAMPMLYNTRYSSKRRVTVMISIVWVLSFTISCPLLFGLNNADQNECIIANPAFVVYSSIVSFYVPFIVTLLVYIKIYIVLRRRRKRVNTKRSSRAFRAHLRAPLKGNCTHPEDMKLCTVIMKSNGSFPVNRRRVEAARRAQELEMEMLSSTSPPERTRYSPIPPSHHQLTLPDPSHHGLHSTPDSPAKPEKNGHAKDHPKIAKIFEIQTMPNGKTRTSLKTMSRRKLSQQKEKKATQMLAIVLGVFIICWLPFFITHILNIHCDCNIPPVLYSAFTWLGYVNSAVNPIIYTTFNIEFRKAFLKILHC
#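 Agonist mode: compounds alone added to overnight-plated D2 PathHunter cells for 90 min at 37 C, with 57 uM final dopamine (EC100) defining full response. Beta-arrestin recruitment detected by chemiluminescent reagent, read after 1 h at ambient temperature.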
# * = called active by the depositor; ? = inconclusive; / = no result given; & = joins results of further samples; [ ] = another dose, or the depositor's remark. No enrichment for hits; 5.1% or so of the library scored in one or more.
SMILES,Menin MLL FP FL,gsp ag,gsp antag,PINK1 expr mod,Sfp PPTase inh,ClpP mod,D2 ag
CCN(C[C@H]1N[C@@](CC)(C(=O)OC)[C@H]2C(=O)N(C)C(=O)[C@@H]12)C(=O)c1ccc(C(C)(C)C)cc1,/,/,1%,-1.7%,/,0.0%,2.1
Cc1ccn2c(CNC(C)CCn3cccn3)c(C(=O)N3CCCCCC3)nc2c1 (stereo unspecified),-2.0,1%,7%,3.0%,11%,/,-5.9
CCN(CC)S(=O)(=O)c1cccc(C(=O)NCCCN2CCOCC2)c1,-5.1,-29%,15%,?,8%,1.1%,1.1
COc1ccccc1NS(=O)(=O)c1cc(NC(=O)c2ccco2)ccc1N1CCOCC1,-1.4,13%[15.4 µM],-13%,-0.3%,-5%,/,-5.8
CCc1nnc(NC(=O)c2nc(S(=O)(=O)Cc3ccc(C)cc3)ncc2Cl)s1,/,-8%[15.4 µM],28µM*,-1.0%&-1.3%,-18%,-1.2%,-1.2
CCn1cc(C(=O)NCCc2ccc(OC)c(OC)c2)c(=O)c2cc(S(=O)(=O)N3CCOCC3)ccc21,-0.2,3%,-11%,-0.3%&0.9%,14%,-1.3%,-0.6
CC(NC(=O)c1ccc(CS(=O)(=O)Cc2ccccc2F)o1)c1ccc2c(c1)OCCO2 (stereo unspecified),0.2,12%,-11%,-1.4%,7%,0.9%,-3.2
O=C(COc1ccc(Br)cc1)Nc1ccc(C(=O)Nc2ccccc2C(=O)O)cc1,1.9,12%[15.4 µM],-3%,0.0%,5%,0.6%,-1.1
COc1cccc(CN(C)C(=O)c2ccc(NS(=O)(=O)c3ccc4[nH]c(=O)[nH]c4c3)cc2)c1OC,-0.7,9%,13%,-1.8%,6%,1.5%,-1.2
CCC(NC(=O)Nc1cc(OC)c(OC)c(OC)c1)(C(F)(F)F)C(F)(F)F,4.3,?,0%,0.6%,13%,-2.6%,2.6
Cc1ccc2c(c1)N(CC(=O)N1CCCC(C)C1)C(=O)CO2 (stereo unspecified),/,2%,2%,-2.3%,5%,/,-2.8
O=C(CCN1N=C(c2ccccc2)CCC1=O)NC1CCCCC1,/,-48%[inhibitor],/,-0.2%,/,0.0%,0.4
Cc1c(C(=O)O)cccc1[N+](=O)[O-],/,/,-1%,0.1%,/,1.0%,-3.5
COC(=O)c1ccc(CSc2ccc3nnc(-c4cccc(F)c4)n3n2)o1,10,-2%,-4%,1.1%,50µM*,?,2.0
O=C(CN1C(=O)NC2(CCCCCC2)C1=O)Nc1ccc(OC(F)(F)F)cc1,/,-17%,/,3.7%,/,0.0%,1.2
O=C1C2CCCN2C(=O)N1CCN1CCN(CCO)CC1 (stereo unspecified),-1.6,28%,-5%,3.1%,-13%,-0.4%,-1.1
CCCCCCCCC(=O)NC(NC(=S)N1CCOCC1)C(Cl)(Cl)Cl (stereo unspecified),3.3,-33%[inhibitor],-10%,5.4%[38.3 µM],10%,-0.3%,0.3
Cc1noc(C)c1C(=O)OCC(=O)Nc1ccc(S(N)(=O)=O)cc1,/,31%,16%,0.4%,/,0.3%,3.6
CN1CCN(S(=O)(=O)c2ccc(N(C)Cc3cccs3)nc2)CC1,-1.1,-11%,9%,0.1%,-12%,-4.4%,-4.8
Cc1cc2cccc(C)c2nc1SCC(=O)NC1CCCCC1,/,?,0%,-1.8%,23%,/,-1.1
CCCCOC(=O)c1ccc(NC(=O)C(=O)NCc2cccnc2)cc1,-2.4,?,-2%,-0.5%,10%,/,2.3
CC(C)COCC(CN(Cc1ccccc1)c1ccccc1)N1CCCC1 (stereo unspecified),2.6&-2.5&-0.8&-4.3,/,5%,11%&15%,-19%&-12%&8%&-20%,-0.8%&0.6%,-5.2
Cc1cc(C)c2c(N)c(C(=O)N/N=C/c3ccccc3)sc2n1,9.5,15%,?,7.6%,7%,?,2.0
COc1cc(/C=C/[N+](=O)[O-])ccc1OC(=O)/C=C/c1ccc(F)cc1,-3.3,-11%[15.4 µM],2%,3.7%,-14%,-3.8%,-2.1
Nc1c(-c2ccc(Cl)cc2)cnc2ncnn12,-1.1,-14%,10%,-3.8%,14%,-1.0%,3.1
Cc1cc(NC(=O)COC(=O)CSCc2ccc(Cl)c(Cl)c2)no1,-2.4,-28%,-4%,4.2%,10%,-1.2%,-0.6
CC(c1ccc(Br)cc1)N1CC23C=CC(O2)C(C(=O)O)C3C1=O (stereo unspecified),2.4,-33%,10%,2.3%,16%,-2.2%,-3.1
Nc1ccc(-n2nnnc2-c2ccco2)cc1,2.2,-33%[inhibitor],-2%,1.5%,28%,-0.4%,-2.4
C=CCNC(=O)c1ccccc1NS(=O)(=O)c1ccc(SC)cc1,-3.0,-23%,-15%,/,11%,-5.0%,-3.4
Cc1cc(C)c(S(=O)(=O)c2cccc(Br)c2C)c(Cl)n1,2.7,-21%,11%,7.7%,-8%,1.5%,-3.9
CC1CN(c2nc3ccccn3c(=O)c2C=O)CC(C)O1 (stereo unspecified),-0.5,?,4%,1.5%,20%,2.7%,-8.6
Cc1ccc(NC(=O)CS(=O)Cc2nc(-c3ccc(C)cc3)oc2C)cc1 (stereo unspecified),2.0,?,-7%,3.4%,1%,-4.8%,4.5
CCc1ccc(/C=C(/C#N)C(N)=S)s1,5.2,?,6%,0.5%,-9%,/,-2.8
CCOc1ccc2oc(C(=O)N3CCN(c4ccccn4)CC3)c(C)c2c1,/,-10%[15.4 µM],-13%,0.8%,-4%,-9.8%,-2.8
CCc1cc(C(=O)N2CCCC(C(=O)c3ccc(C(F)(F)F)cc3)C2)n(C)n1 (stereo unspecified),-1.2,29%,-4%,1.0%,-2%,-0.2%,3.4
CC(=O)c1cccc(-c2cnc3c(NC=O)cc(-c4cccc(C(=O)N(C)C)c4)cn23)c1,/,/,/,5.7%,/,-1.1%,9.4
COc1cccc2c1OC1(C)CC2NC(=O)N1 (stereo unspecified),-0.9,3%,9%,-4.4%[38.3 µM],19%,-2.9%,2.8
CCOC(=O)Cc1csc(NC(=O)COc2ccccc2OCC)n1,-1.3,-2%,-13%,/,5%,-1.1%,0.7
CCN(CC)C(=S)SC1CCCCN(C(=O)c2ccc(F)cc2)C1=O (stereo unspecified),1.7,-13%[15.4 µM],-14%,2.9%,10%,-0.4%,0.6
O=C(Cn1cnc2nc3n(c2c1=O)CCC3)NCc1ccccc1,-1.8,23%[15.4 µM],2%,3.0%,16%,/,-2.8

# Only PINK1 expr mod, ClpP mod and gsp ag (2 entries from above):
canonical_smiles	PINK1 expr mod	ClpP mod	gsp ag
CC(NC(=O)c1ccc(CS(=O)(=O)Cc2ccccc2F)o1)c1ccc2c(c1)OCCO2 (stereo unspecified)	-1.4%	0.9%	12%
Cc1cc2cccc(C)c2nc1SCC(=O)NC1CCCCC1	-1.8%	/	?

# Carrying on.
SMILES,Menin MLL FP FL,gsp ag,gsp antag,PINK1 expr mod,Sfp PPTase inh,ClpP mod,D2 ag
O=C(CN1C(=O)c2ccccc2C1=O)Nc1cccc(O)c1,-7.4,-2%[15.4 µM],-2%,0.2%,4%,-1.5%,5.1
NCCN1C(=O)S/C(=C\c2ccc3c(c2)OCO3)C1=O,-1.2,22%,-11%,0.7%,-1%,-4.4%,0.0
COc1cccc(Cn2cnc3c(NS(=O)(=O)c4cc(Cl)ccc4Cl)c(C)c(C)cc32)c1,2.7,-9%,-17%,-1.1%,-6%,-1.3%,-0.9
CCOc1ccc(S(=O)(=O)NCCC(=O)NCc2ccc(OC)c(OC)c2)cc1,/,?,15%,1.2%,/,0.2%,2.9
Clc1cccc(Cc2c(-c3ccccc3)nc3ccc(Cl)cn23)c1,/,/,/,0.8%,/,-28%,-3.7
Cc1[nH]c2ccccc2c1CC(=O)O,2.1,-25%,-4%,3.0%[38.3 µM],8%,-11%,0.1
COc1ccccc1N1CCN(CCCC(=O)c2ccc(F)cc2)CC1,-2.7,/,-2%,-0.1%,19%,-2.2%,-2.7
Cc1ccc2cc(C(c3nnnn3C3CCCC3)N3CCOCC3)c(=O)[nH]c2c1C (stereo unspecified),-2.1,-2%,2%,-2.4%[38.3 µM],5%,?,0.3
C=CCN(CC=C)Cc1cc(=O)oc2cc(C)ccc12,/,/,/,1.6%,/,4.2%,1.5
Cc1cc(S(=O)(=O)N2CCCCC2CCNC(=O)C(=O)NCCN2CCOCC2)ccc1F (stereo unspecified),/,6%,/,-0.2%,/,0.7%,-1.1
CC(=O)Nc1nc2ccccc2n1Cc1ccc(C)cc1,0.5,0%,-3%,-1.4%,-1%,-4.5%,5.9
Cc1cc(C(=O)OCC(=O)Nc2ccccc2C)c(C)o1,/,5%,10%,0.5%,/,1.2%,0.7
Cc1[nH]n(-c2ccccc2)c(=O)c1C(c1ccccc1C(=O)O)c1c(C)[nH]n(-c2ccccc2)c1=O,/,-23%,6%,?,-13%,9.6%,0.7
Cc1cc(C)c(NC(=O)CN(C2CCCCC2)C2CCCCC2)c(C)c1,-1.8,?,7%,2.2%[38.3 µM],8%,-3.1%,-1.4
COC(=O)c1ccc(C)c(-n2c(C)cc(C=O)c2C)c1,/,-19%,1%,1.4%,6%,-0.4%,-0.8
O=C(c1ccc([N+](=O)[O-])s1)N1CCN(c2ccccc2)CC1,1.5,-31%[inhibitor],3%,19%,-3%,0.8%,-0.1
COc1cccc(CN(C)C(=O)c2cccc(S(=O)(=O)N3CCN(Cc4ccccc4)CC3)c2)c1OC,/,0%,?,2.1%,/,-1.4%,-2.8
CCC1=NN(C(=O)COc2ccccc2C)C(O)(c2ccncc2)C1 (stereo unspecified),-1.4,-53%[inhibitor],-3%,-0.1%,?,-1.5%,-0.4

# Source: PubChem BioAssay
